Compound activity as filed in PubChem BioAssay.
KCNQ2 block: KCNQ2 channel blockers in CHO-K1 cells – cell-based, FluxOR thallium flux, B-score, primary screen (AID 2156). B-score at 10 µM. actives 1.1% (n = 310,000). 20 min; hits give low values; only compounds with negative scores are shown here; some inactives read as strong as hits;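 active = fluorescence ratio B-score at most minus 3 library SDs, with starting brightness B-score within 2 library SDs, cut at about -5.5 in these data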
Target sequence (O88943 whole entry, looked up): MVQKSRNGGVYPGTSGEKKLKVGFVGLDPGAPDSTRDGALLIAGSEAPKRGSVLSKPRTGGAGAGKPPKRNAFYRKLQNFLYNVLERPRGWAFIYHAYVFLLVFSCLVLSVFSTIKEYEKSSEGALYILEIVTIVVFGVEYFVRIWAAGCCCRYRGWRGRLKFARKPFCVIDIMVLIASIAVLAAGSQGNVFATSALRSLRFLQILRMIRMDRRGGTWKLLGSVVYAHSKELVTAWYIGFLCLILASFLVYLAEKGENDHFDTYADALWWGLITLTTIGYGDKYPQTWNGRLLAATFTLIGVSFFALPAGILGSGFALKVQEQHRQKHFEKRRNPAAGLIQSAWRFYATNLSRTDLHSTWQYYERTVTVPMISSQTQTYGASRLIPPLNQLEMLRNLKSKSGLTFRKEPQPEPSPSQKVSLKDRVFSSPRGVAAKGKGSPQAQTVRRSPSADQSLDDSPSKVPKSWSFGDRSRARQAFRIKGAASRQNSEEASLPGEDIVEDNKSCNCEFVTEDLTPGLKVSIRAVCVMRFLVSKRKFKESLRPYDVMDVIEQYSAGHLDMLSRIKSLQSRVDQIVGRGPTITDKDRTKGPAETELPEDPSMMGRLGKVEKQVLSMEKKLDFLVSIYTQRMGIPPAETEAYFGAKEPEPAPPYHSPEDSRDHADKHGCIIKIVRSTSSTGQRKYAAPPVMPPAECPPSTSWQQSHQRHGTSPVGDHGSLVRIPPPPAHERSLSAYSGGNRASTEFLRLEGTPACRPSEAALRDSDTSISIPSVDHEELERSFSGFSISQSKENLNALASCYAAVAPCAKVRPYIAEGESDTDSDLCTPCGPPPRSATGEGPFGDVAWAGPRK
KCNQ2 block baseline: second read-out of KCNQ2 block, no call of its own (marks repeat the call); B-score; measured here: initial fluorescence intensity artifact check;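 brightness before thallium and not channel activity; 0 = typical well and far values either way flag optical interference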
Starred values were filed as active, the others as inactive; i = inactive.

SMILES	KCNQ2 block	KCNQ2 block baseline
CC(C)[C@H](NC(=O)[C@@H]1CSC2c3ccccc3C(=O)N21)C(=O)NCC1CCCO1 (stereo not given in full)	i	1.6
CC1CCN(CCc2nc3cc(NC(=O)C(C)C)ccc3n2C)CC1	i	-1.1
Cc1csc(=O)n1CC(=O)OCc1nnc(-c2ccccc2)o1	i	1.1
C=CCC1(CC=C)CCCN1C(=O)C1CCC(=O)N(CCc2ccccc2)C1 (stereo not given)	i	-2.1
CCOc1ccc(S(=O)(=O)Nc2ccc(S(=O)(=O)N3CCCCC3)cc2)cc1	i	0.67
CCc1nnc(NC(=O)CSc2nnc(-c3ccco3)n2CCOC)s1	i	0.42
COc1ccc(Oc2cccc(Cl)c2CNC(=O)CSCC(=O)O)cc1	i	0.14
COCCn1c(SCC(=O)/C=C2\N(C)c3ccccc3C2(C)C)nnc1-c1ccncc1	i	1.9
Cc1cc(C)c(C(=O)NNC(=O)c2cccnc2)c(C)c1	i	-0.3
O=C(NCCc1ccccc1)NC1CCCCC1	i	0.34
Nc1nonc1-c1nc2ccccc2n1CC(=O)N/N=C/c1ccc(-c2ccccc2C(=O)O)o1	i	-0.45
CCN(CC)C(=O)COc1cc(C)cc2oc(=O)cc(-c3ccccc3)c12	i	-1.6
O=C(c1ccccc1Cl)N1CCNCC1	i	0.03
CCCn1cc(S(=O)(=O)c2ccc(OC)cc2)c(=O)c2cc(OCC)ccc21	i	0.67
CN1CCN(c2ccc(NC(=S)NC(=O)c3cccc4ccccc34)cc2)CC1	i	0.34
CCOC(=O)c1c(C)[nH]c(C)c1C(=O)COC(=O)c1nc2nccc(C)n2n1	i	0.16
Cc1cc(C)n2nc(SCCCC(=O)c3ccc(F)cc3)nc2n1	i	-0.31
COC(=O)CSc1cccc2c1C(=O)CC2c1ccccc1 (stereo not given)	i	0.78
Cc1ccc(-c2nc(SCC(=O)NCC3CCCO3)c(-c3ccc(Cl)cc3)[nH]2)cc1 (stereo not given)	i	-1.8
O=C(CN1CCN(S(=O)(=O)c2ccc(F)cc2)CC1)Nc1ccc(Cl)c(C(F)(F)F)c1	i	-0.35
Cn1c(=O)c2c(nc(SCC(=O)NCc3ccc4c(c3)OCO4)n2Cc2ccccc2)n(C)c1=O	i	1.5
Cc1ccccc1CSc1nnnn1-c1ccc(C(N)=O)cc1	i	0.2
O=C(NC(=S)Nc1ccccn1)c1ccc(-c2ccccc2)cc1	i	-0.83
COc1cc(/C=C2\SC(=O)N(CC(=O)Nc3ccc(C)cc3)C2=O)cc(Cl)c1OCC(=O)O	i	0.01
COCCOC(=O)c1c(C)n(C)c2ccc(OC(=O)c3ccco3)cc12	i	-2.8
O=C1NC(=O)N(Cc2ccccc2)C1=O	i	-0.07
Cc1cc(N2C(=O)C(O)=C(C(=O)c3cc4ccccc4o3)C2c2cccc(Br)c2)no1 (stereo not given)	i	-0.36
O=C(NCCCn1ccnc1)C(=O)NCC(c1cccnc1)N1CCN(c2ccccc2)CC1 (stereo not given)	i	2.8
O=C(NCCCN1CCOCC1)C(=O)NCc1ccccc1Cl	i	0.09
CCOC(=O)c1sc2cc([N+](=O)[O-])cc(SCC(=O)OC)c2c1N	i	0.56
Cc1ccc(NCc2ccccc2OCc2ccccc2F)cc1	i	-0.87
C[C@@H](C(O)c1ccccc1)N(C)C(=O)CCc1ccccc1 (stereo not given in full)	i	-0.01
CCc1ccc(C(C)NC(=O)/C(C#N)=C\c2cn[nH]c2-c2ccccc2)cc1 (stereo not given)	-9.1*	-0.88*
COc1ccc(NC(=O)COC(=O)c2cc([N+](=O)[O-])ccc2N2CCOCC2)cc1	i	-0.17
COc1ccc(-n2nc(C(=O)NCC(=O)N(C)Cc3ccccc3)c3ccccc3c2=O)c(OC)c1	i	0.06
COc1ccc(C(=O)N2CCc3[nH]nc(-c4ccccc4)c3C2)cc1	i	1.5
COC(=O)CC1Oc2ccccc2N(Cc2ccc(C)cc2)C1=O (stereo not given)	i	-0.26
Cc1ccc(S(=O)(=O)N(c2cccc(C(F)(F)F)c2)C2C=CS(=O)(=O)C2)cc1 (stereo not given)	i	-0.82
CC1CCCN(c2nc3nonc3nc2N2CCCC(C)C2)C1 (stereo not given)	i	0.02
CCC(C)NS(=O)(=O)c1ccc(OCC(=O)NCc2ccco2)cc1 (stereo not given)	i	-1.7
Cc1nc(N2CCN(C(=O)c3ccco3)CC2)c2c3c(sc2n1)CCCC3	i	-0.17
CN1CCN(S(=O)(=O)c2cccc(C(=O)Nc3cc(C(N)=O)cc(C(N)=O)c3)c2)CC1	i	0.27
Cc1ccc(-n2c(-c3ccco3)nc3nc4ccccc4nc32)cc1	i	-0.82
O=S(=O)(c1cnc(Cl)c(Br)c1)N1CCCCCC1	i	-1.2
c1ccc2c(c1)OC(CCCN1CCCCC1)c1ccccc1S2 (stereo not given)	i	-0.08
CCCC(CCC)C(=O)NC1CCN(Cc2ccccc2)CC1	i	-0.19
CCNC(=O)c1ccc2c(c1)C1C3CCC(C3)C1C(c1ccccc1)N2 (stereo not given)	i	1.4
Cc1cc(C)nc(-n2cc(C(=O)c3cc(F)ccc3O)cn2)n1	i	-1.2
Cc1ccc(C)c(Nc2c([N+](=O)[O-])ccc3nonc23)c1	i	-0.1
CCOc1ccc(-n2c(N)c(C(=O)NCc3ccco3)c3nc4ccccc4nc32)cc1	i	1.4
CC1(C)CC(=NOC(=O)c2ccccc2)CC(C)(C)N1	i	1.6
CN1C(C(=O)c2ccccc2)=C(N)c2ccccc2S1(=O)=O	i	-0.05
COC(=O)CN1C(=O)C(O)(CC(=O)c2ccc(C)cc2)c2ccccc21 (stereo not given)	i	-0.74
N=C1C(c2nc3ccccc3[nH]2)=C(O)CN1C1CCCCC1	i	-0.83
O=C(CCCOc1ccc(Cl)cc1Cl)Nc1ccccc1C(=O)O	i	0.9
COc1ccccc1NC(=O)COc1ccc(C(=O)NC2CCCc3ccccc32)cc1OC (stereo not given)	i	-0.03
CN(C)CCCOc1ccc2c(c1)Sc1ccccc1CC2=O	i	0.02
Fc1ccc(COc2ccc(Cl)cc2/C=N/Nc2nc(N3CCCC3)nc(N3CCCC3)n2)cc1	i	-0.05
COC(=O)[C@H](Cc1ccccc1)NC(=O)NCc1ccccc1OC	i	-2.4
CCNc1ccc(C(=O)OCC(=O)c2cc(C)n(Cc3ccc4c(c3)OCO4)c2C)cc1[N+](=O)[O-]	i	-0.66

Additional results.
SMILES	KCNQ2 block	KCNQ2 block baseline
Clc1ccc(OCCCN2CCc3ccccc3C2)c(Br)c1	i	-1.2
COc1ccccc1N1CCN(C(CNS(=O)(=O)c2ccccc2)c2cccnc2)CC1 (stereo not given)	i	0.06
CC(=O)Nc1ccc(S(=O)(=O)Oc2cccc(/C=C3\SC(N)=NC3=O)c2)cc1	i	-0.4
O=C(CCCCCN1C(=O)c2ccccc2C1=O)Nc1nccs1	i	1.2
Cc1ccc(C(C(=O)NC2CCCCC2)N(Cc2ccco2)C(=O)C2COc3ccccc3O2)o1 (stereo not given)	i	-1.5
CCOC(=O)/C(=C/Nc1ccccc1)[N+](=O)[O-]	i	0.16
NC(=O)COC(=O)c1ccc2noc(-c3ccccc3)c2c1	i	0.51
S=c1nc(-c2csc3c2CCCC3)[nH][nH]1	i	0.16
O=S(=O)(Cc1ccccc1)Nc1ccc(Br)cn1	i	0.18
O=C(CC1C(=O)NCCN1Cc1cccc(F)c1)NC1CCCCCC1 (stereo not given)	i	0.71
CCN(CCCNC(=O)CCCN1C(=O)COc2ccc(C)cc21)c1cccc(C)c1	-6.3*	-0.38*
COc1ccccc1OCC(=O)Nc1ccc(N2CCCCC2)cc1	i	-1.2
CCCc1cc(=O)[nH]c(SCC(=O)NCc2ccc3c(c2)OCO3)n1	i	-0.36
COc1ccccc1N1CCN(C(=O)c2ccc3[nH]c(C)c(C)c3c2)CC1	i	0.04
C=CCN(CC=C)C(=O)c1cccc(S(=O)(=O)N2c3ccccc3CC2C)c1 (stereo not given)	i	-1.9
Cc1c(C(=O)N2CCN(Cc3ccc4c(c3)OCO4)CC2)sc2ncnc(N3CCN(c4ccccc4F)CC3)c12	i	-1.6
CCn1c(=O)n(CC)c2cc(N3CCCC3)c(NC(=O)c3cccc(C)c3)cc21	i	0.13
O=C(NCc1ccco1)C1CCCN1C(=O)NCc1ccccc1 (stereo not given)	i	-1.2
CCN1CCN(c2oc(/C=C/c3ccccc3)nc2C#N)CC1	i	1.9
Cc1cc2c(C)nc3ccccc3c2o1	i	1.9
N#Cc1cccc(NC(=O)CNc2cccc(S(=O)(=O)N3CCCCC3)c2)c1	i	0.22
CC(=O)c1cccc(NC(=O)CN2C(=S)NC(C)(C)CC2C)c1 (stereo not given)	i	0.38
Cc1cccc(C)c1OCc1nnc(SCC(=O)Nc2nccs2)o1	i	0.06
O=C(COc1ccc(Br)cc1)NN1C(=O)c2ccccc2C1=O	i	0.73

Going on with the list:
Compound	KCNQ2 block	KCNQ2 block baseline
CCn1c(SCC(=O)Nc2ccc(N(C)C)cc2)nnc1-c1cccc(C)c1	i	-0.18
C=CCOc1cccc(C2C(C(=O)c3ccc(C)o3)=C(O)C(=O)N2Cc2ccncc2)c1 (stereo not given)	i	-0.06
Cc1cc(C(=O)N/N=C2\CC(=O)c3ccccc32)c(C)n1-c1ccc(F)cc1	i	-0.01
COc1ccc(C(=O)COC(=O)CCC(=O)c2cccs2)cc1	i	-0.55
COc1ccccc1C(=O)NNC(=O)C1CCCO1 (stereo not given)	i	0.35
Cc1ccc([C@@H]2[C@@H]3C(=O)N(c4ccccc4)C(=O)[C@@H]3[C@]3(C)C(=O)N(Cc4ccc(-c5ccccc5)cc4)CC(=O)N23)o1	i	-0.56
Cc1cc(C)c(NC(=S)N2CCCC2C(=O)O)c(C)c1 (stereo not given)	i	-0.42
C#CCOCCOCCOCCNc1nc(N2CCN(C(=O)[C@H]([C@@H](C)CC)n3cc([C@@H](N)CO)nn3)CC2)nc(N2CCN(C(=O)[C@H]([C@@H](C)CC)n3cc([C@@H](N)CO)nn3)CC2)n1	i	2.8
Cc1nnc(SCC(=O)Nc2ccc(O)cc2)c2ccccc12	-5.6*	-0.7*
CNC(=S)NNC(=O)c1sccc1OCc1cccc(C(F)(F)F)c1	i	-0.3

3 entries drawn at random from the list so far:
Compound	KCNQ2 block	KCNQ2 block baseline
CCOc1ccc(-n2c(N)c(C(=O)NCc3ccco3)c3nc4ccccc4nc32)cc1	i	1.4
Cc1cccc(C)c1OCc1nnc(SCC(=O)Nc2nccs2)o1	i	0.06
C=CCC1(CC=C)CCCN1C(=O)C1CCC(=O)N(CCc2ccccc2)C1 (stereo not given)	i	-2.1

In the list so far, these contain a thiophene ring, fused or not.
Compound	KCNQ2 block	KCNQ2 block baseline
CCOC(=O)c1sc2cc([N+](=O)[O-])cc(SCC(=O)OC)c2c1N	i	0.56
Cc1nc(N2CCN(C(=O)c3ccco3)CC2)c2c3c(sc2n1)CCCC3	i	-0.17
S=c1nc(-c2csc3c2CCCC3)[nH][nH]1	i	0.16
Cc1c(C(=O)N2CCN(Cc3ccc4c(c3)OCO4)CC2)sc2ncnc(N3CCN(c4ccccc4F)CC3)c12	i	-1.6
COc1ccc(C(=O)COC(=O)CCC(=O)c2cccs2)cc1	i	-0.55
CNC(=S)NNC(=O)c1sccc1OCc1cccc(C(F)(F)F)c1	i	-0.3

Further records
Compound	KCNQ2 block	KCNQ2 block baseline
COc1cc(/C=C2/CCc3ccccc3C2=O)cc(OC)c1OC	i	-1.2
COc1cc2c(cc1NC(=O)C(C)Sc1nc3ccccc3n1C)oc1ccccc12 (stereo not given)	i	0.91
O=C(c1cc(-c2ccco2)nn1-c1cccc(Cl)c1)N1CCCCC1	i	0.03
O=C(O)CSc1cc(C(F)(F)F)nc(-c2ccccn2)n1	i	-1.8
CNC(=O)c1ccc(Oc2ccc(C(=O)NC)cc2)cc1	i	2.3
O=C(C1CC(=O)N(C2CCCC2)C1)N1CCN(c2ccccc2)CC1 (stereo not given)	i	-1
CNC(=S)N1CCC(Cc2ccccc2)CC1	i	-0.42
CC(C)CC(=O)N/C(N)=N/c1nc2ccccc2s1	i	-0.02
Cc1ccc(S(=O)(=O)N(CC(=O)NCc2ccco2)Cc2ccc(F)cc2)cc1	-7.3*	-0.36*
Nc1nc(NCc2ccco2)nc(NC2CCCCC2)c1[N+](=O)[O-]	i	-0.63
CC(=O)N1c2ccc(S(=O)(=O)N3CCCC3)cc2CC1C(=O)NCc1ccc(N(C)C)cc1 (stereo not given)	i	0.34
S=C1N(c2ccccc2)CN(C2CCCCC2)CN1c1ccccc1	i	0.04
c1ccc(-c2n[nH]c(-c3ccccn3)n2)nc1	i	-0.02
CN(C)c1ccc(/C=C/C(=O)c2cc(Cl)ccc2O)cc1	i	0.73
CCCOc1ccc2c(=O)c(-c3cc(C(=O)OC)oc3C)c(C)oc2c1	i	2.1
O=C(Nc1cccnc1)C1(c2ccc(Cl)cc2)CCCC1	i	-0.16
O=C(NCc1ccccn1)c1cc(Cl)ccc1OCc1ccccc1	i	0.71
COc1ccc(NS(=O)(=O)c2cccc(-c3n[nH]c(=S)n3Cc3ccccc3)c2)cc1	i	-0.86
CCCCCCc1nc(C(N)=O)c2[nH]c(=O)n(-c3ccc(OCC)cc3)c2n1	i	1.5
Cc1ccc(CNC(=O)CCS(=O)(=O)c2ccc(Br)s2)cc1	i	-0.18
COc1ccc(NC(=O)Cc2c(O)c3ccccc3[nH]c2=O)cc1	i	1.7
CCCN(CCC)c1nc(-c2ccccn2)nc2ccccc12	i	1.4
CSc1ccccc1NC(=O)CN(C)C(=O)Cc1c(F)cccc1Cl	i	1.2

Only part of the results is shown; count on the stated rates, not on these rows.
